Screening data from PubChem.
Hsc70 = small molecules displacing fluorescent ligand from Hsc70 – biochemical, fluorescence polarization, primary screen (AID 568); Hsc70 fluorescence polarization, probe displacement; higher % means a stronger effect; strong numbers were not always called active; displacement, % at 20 µM, or IC50 in µM where a hit was titrated; 83,000 tested, under 10 active;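 active = displacement above 50% without optical interference and an IC50 on retest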;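 also: ATPase domain with a fluorescein-tagged ATP probe; 0% = vehicle and 100% = excess ADP; read after one hour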
MT1-MMP reporter = MT1-MMP gene expression reporter suppression – cell-based, luciferase reporter, luminescence (AID 618) | MT1-MMP promoter luciferase reporter cells, luminescence | calls from a first round at 10 µM; hits with a dose series show EC50 in µM | 87,000 tested, 0.62% active;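 active = over half of the reporter light lost at 10 µM or EC50 under 50 µM; inactive = the rest and hits that failed the dose series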;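 also: actives suppress MT1-MMP promoter-driven transcription so potencies describe inhibitors; HT1080 fibrosarcoma cells; overnight exposure; toxic or luciferase-blocking compounds were not removed from the actives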
WNV NS2B-NS3 inh = WNV NS2B-NS3 proteinase inhibition; WNV NS2B-NS3 protease, fluorogenic substrate Ex360/Em465; stronger effect = lower value; z-score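 (tested at a level between 10 and 100 µM)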; 65,000 tested, 0.18% active; AID 577;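 active = z-score at -3 or under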;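 also: score is relative to mean and spread of the compound wells of a plate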
Target sequence (P06935 1371-1501 limits assumed): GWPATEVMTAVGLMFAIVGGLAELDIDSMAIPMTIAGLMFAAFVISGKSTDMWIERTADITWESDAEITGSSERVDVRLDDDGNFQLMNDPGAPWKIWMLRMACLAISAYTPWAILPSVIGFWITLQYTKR
Target sequence (P06935 1502-1679 limits assumed): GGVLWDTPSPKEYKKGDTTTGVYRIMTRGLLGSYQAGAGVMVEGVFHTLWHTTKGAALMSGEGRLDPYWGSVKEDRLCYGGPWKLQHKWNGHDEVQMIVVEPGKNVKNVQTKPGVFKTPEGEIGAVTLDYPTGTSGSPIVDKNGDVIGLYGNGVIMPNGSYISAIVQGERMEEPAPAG
* hit, by the source's call; i = inactive; x = no result given; & = joins results of further samples. Some of the compounds tested; the hit share may differ from the screen's.

Sequence of screens – MT1-MMP reporter	WNV NS2B-NS3 inh	Hsc70
Cc1ccc(S(=O)(=O)N2CCN(Cc3nc4ccccc4n3C)CC2)cc1
  i	-1.4	-3.6%
COC(=O)C1=C(C)NC(=O)NC1/C=C/c1ccccc1 (stereo unspecified)
  i	-0.48	4.0%
Cc1cccc(-n2nc3c(c2NC(=O)CCC2CCCCC2)CS(=O)C3)c1C (stereo unspecified)
  i	-0.33	7.9%
O=S(=O)(c1ccc(S(=O)(=O)N2CCN(C3CCCCC3)CC2)cc1)N1CCCCCC1
  i	0.27	-5.9%
COC(=O)c1ccc(NC(=O)COc2ccc(S(=O)(=O)NC(C)C)cc2)cc1
  i	0.21	4.8%
Cc1ccc2[nH]c(=O)c(CN(CCc3ccccc3)Cc3nnnn3CC3CCCO3)cc2c1 (stereo unspecified)
  i	1.2	-1.1%
NS(=O)(=O)c1ccc(NC(=O)CN2CCN(Cc3ccccc3)CC2)cc1
  i	-1.5	5.8%
O=C(Nc1ccc2nc(-c3cccnc3)[nH]c2c1)C1CCCCC1
  i	x	1.5%
CC1CCN(C(=O)c2cc3nc(C4CC4)cc(C(F)(F)F)n3n2)CC1
  i	x	1.7%
CCc1n[nH]c2c1C(=O)CC(C)(C)C2
  i	0.76	-3.0%
O=C1C=C(O)CC(c2cccs2)C1 (stereo unspecified)
  i	-0.03	-3.1%
CCc1oc2ccccc2c1C(=O)CCN1CCCCC1
  i	0.08	3.9%
Oc1ccc2ccccc2c1C=Nc1ccc(N2CCOCC2)cc1
  i	x	-14%
c1ccc(Nc2nc(N3CCNCC3)nc(N3CCOCC3)n2)cc1
  i	x	-3.1%
O=C(NCc1ccccc1)c1cnsn1
  i	-1.2	2.8%
CCOC(=O)Cn1cc(C=O)c2ccccc21
  i	x	-1.5%
CCC(Sc1nnc(-c2ccc(C)c(Cl)c2)n1CC)C(=O)Nc1nccs1 (stereo unspecified)
  i	-0.31	-2.0%
O=C(CCCc1ccccc1)NCCN1CCOCC1
  i	-0.4	2.2%
Cc1cc(C)nc(NS(=O)(=O)c2ccc(NC(=O)c3ccc4c(c3)OCO4)cc2)n1
  i	-0.56	-0.6%
C=CCn1c(SCC(=O)c2cccs2)nc2sc(CC)cc2c1=O
  i	-0.5	1.9%
CCSc1nnc2c(Cl)cc(Cl)cn12
  i	0.77	-1.1%
COc1cccc(Cn2c(OCC3CCCO3)nc3c2c(=O)n(C)c(=O)n3C)c1 (stereo unspecified)
  i	-0.71	-5.7%
CCOC(=O)c1cccc(NC(=O)CN2C(=O)C3C4C=CC(C4)C3C2=O)c1 (stereo unspecified)
  i	-0.7	-2.4%
COc1ccc(CCN=C2SCC(=O)N2C)cc1OC
  i	-0.84	-1.0%
CCOc1ccc(C2=Nn3c(nnc3-c3ccc(OC)cc3)SC2)cc1
  i	0.4	-0.1%
Cc1cc(C)n(C(=O)C(C)N2C(=O)c3ccccc3C2=O)n1 (stereo unspecified)
  i	-1	3.0%
Cc1cc2cc(CNC(=O)NC3CCCCC3)ccc2[nH]1
  i	1.3	-1.1%
COc1ccccc1CNC(=O)c1ccc(S(=O)(=O)N(C)C)cc1
  i	0.01	2.6%
CSc1ccccc1NC(=O)CN(Cc1ccccc1)S(C)(=O)=O
  i	0.52	0.0%
COc1ccc(/C=N/n2c(N)c(S(=O)(=O)c3cccs3)c3nc4ccccc4nc32)cc1OC
  i	x	-4.3%
O=C(O)c1nn(-c2ccccc2)nc1-c1nn(-c2ccccc2)nc1C(=O)O
  i	-0.52	-0.7%
CCOC(=O)C1CCCN(C(=O)c2sc3nc(-c4ccccc4)cn3c2C)C1 (stereo unspecified)
  i	0.63	3.2%
C=CCSC1=C(C#N)C(c2ccccc2OC)CC(=O)N1 (stereo unspecified)
  i	-0.5	1.7%
CC1(C)CC(=O)c2sc(NS(C)(=O)=O)nc2C1
  i	0.31	6.0%
O=C(c1ccccc1)c1ccc(N2CCNCC2)cc1
  i	1.6	4.2%
O=C(NCc1ccco1)C1CCC(CNS(=O)(=O)c2cccc3cccnc23)CC1 (stereo unspecified)
  i	-0.88	1.5%
COC(=O)CCC(=O)Nc1ccc(NC(C)=O)cc1
  i	1.6	-3.1%
N#C/C(C(=O)N1CCOCC1)=C1\Nc2ccccc2S1
  i	-0.29	-0.5%
COc1ccc(CCNC(=O)c2noc3c2CCCC3)cc1OC
  i	-1.4	-1.3%
COc1ccc2[nH]c(=O)c(CN(C(C)=O)C3CCCCC3)cc2c1
  i	-0.88	4.3%
c1ccc(CSc2nncn2-c2ccccn2)cc1
  i	1.6	-3.8%
CC(=O)N1CCc2cc(C(=O)CN3CCN(C(=O)c4ccco4)CC3)ccc21
  i	0.72	-2.9%
COCCCNc1oc(-c2ccccc2F)nc1C#N
  i	1.4	8.0%
O=C(NCCO)C1CCN(S(=O)(=O)c2ccc(F)cc2)CC1
  i	-0.28	-1.9%
Cc1cnc(NC(=O)c2cc3c(C)nn(-c4ccccc4)c3s2)s1
  i	x	-5.6%
CCCn1c(SCC(=O)NCCc2ccccc2)nnc1-c1ccccn1
  i	-0.8	1.4%
Cc1ccc(Cl)cc1N1CCN(C(=O)CN(C2CCCCC2)S(C)(=O)=O)CC1
  i	x	2.4%
Cc1ccc(Cn2c(SCC(C)C)nc3c2c(=O)n(C)c(=O)n3C)cc1
  i	-0.28	3.6%
O=C(N1CCCCCC1)N1CCN(C(=O)N2CCOCC2)CC1
  i	-0.16	-16%
O=C1OC(NC(=O)c2ccccc2)C(n2cc(CO)nn2)=C1Cl (stereo unspecified)
  i	-2.8	1.9%

Following part.
Sequence of screens – MT1-MMP reporter	WNV NS2B-NS3 inh	Hsc70
CC(C)OCCCNC(=O)c1ccc2c(c1)ncn2C1CCCC1
  i	0.27	-5.4%
O=C(CSc1nnnn1-c1ccc(F)cc1)NC1CCCCC1
  i	0.62	-1.1%
COc1ccc(C2C(C(=O)Nc3cccc(C)n3)c3ccccc3C(=O)N2C)cc1 (stereo unspecified)
  i	-0.04	5.5%
COc1ccc(-c2nc(CSCC(=O)NCC3CCCO3)c(C)o2)cc1OC (stereo unspecified)
  i	-0.01	-1.1%
Cc1nc2ncnn2c(C)c1CCC(=O)NC(C)CCc1ccco1 (stereo unspecified)
  i	-1.5	-4.1%
Cc1cc(C)nc(NC(=O)c2ccc(OC(C)C)cc2)n1
  i	-0.51	8.3%
COCCCNC(=O)c1c(N)n(/N=C/c2cccnc2)c2nc3ccccc3nc12
  i	-0.37	-11%
NC(=O)c1oc2ccccc2c1NC(=O)c1ccco1
  i	1	-2.7%
CC1(C)CC(=O)CC(C)(C)N1OC(=O)c1ccccn1
  i	0.24	4.7%
COc1cccc(-c2nc(CS(=O)(=O)CC(=O)NCCC(C)C)c(C)o2)c1
  i	-0.06	2.0%
Cc1ccc(Cc2cnc(NC(=O)c3cccs3)s2)cc1
  i	x	-4.2%
Cc1ccc(S(=O)(=O)N2CCN(C(=O)CC3CCCC3)CC2)cc1
  i	-0.22	-1.4%
CCOC(=O)C1=C(c2ccccc2)N(C)C(=O)NC1c1ccc(OC(F)F)c(OC)c1 (stereo unspecified)
  i	0.32	3.2%
COCCNC(=O)C(c1ccccc1)N(CCOC)C(=O)Cn1nnc2ccccc21 (stereo unspecified)
  i	-0.76	3.9%
CC1CCC/C(=C\Nc2ccc(O)cc2)C1=O (stereo unspecified)
  i	1.1	-1.4%
CCOCCCNS(=O)(=O)c1ccc2c(c1)oc(=O)n2CC(=O)OCC
  i	-0.31	0.8%
C=CCn1cnc2scc(-c3ccccc3)c2c1=O
  i	-0.92	-1.1%
O=C(Nc1nccs1)c1ccc(Br)o1
  i	-0.32	1.2%
CCCn1c(SCC(=O)NCCc2ccccc2)nnc1-c1cccnc1
  i	-1.3	-2.1%
CC1CCCCC1NC(=O)C1CCN(C(=O)c2sccc2-n2cccc2)CC1 (stereo unspecified)
  i	-0.56	3.3%
Cc1cccc(Cn2c(=O)n(Cc3ccco3)c(=O)c3ccccc32)c1
  i	-0.56	0.3%
COc1cc(/C=N/N(C)c2ccccc2)cc(Cl)c1O
  i	x	1.6%
COc1ccc(OC(C)C(=O)N2CCN(c3ccccn3)CC2)cc1 (stereo unspecified)
  i	0.13	-7.7%
Cc1nc2ccc(NC(=O)N3CCCCC3)cc2nc1C
  i	x	-0.4%
COc1cc(-c2nc3n(n2)C(c2ccncc2)C(C(N)=O)=C(C)N3)cc(OC)c1OC (stereo unspecified)
  i	-0.28	7.8%
O=C(Nc1ccccc1C(F)(F)F)C1CC(=O)N(c2ccccc2F)C1 (stereo unspecified)
  i	0.25	-0.9%
COc1ccc2c(c1)-c1c(ssc1=S)C(C)(C)N2
  i	x	2.7%
O=C(CSc1nc2ccccc2c(=O)n1Cc1ccco1)c1ccc(F)cc1
  i	1.9	3.2%
Cc1nc2ccc(Nc3nc4cc(S(=O)(=O)N5CCOCC5)ccc4o3)cc2s1
  i	0.64	-8.2%
c1ccc(-c2cn3cccnc3n2)cc1
  i	1.4	2.2%
COC(=O)c1cc(CSc2nc3ccc(C)cc3[nH]2)oc1C
  i	-0.13	-1.1%
CC(=O)N1C(=O)c2cccc3cccc(c23)C(=O)N1C(C)=O
  i	-0.5	-0.3%
O=C(Nc1ccccc1)N1CC=C(c2ccccc2)CC1
  i	-1.2	7.8%
CCOC(=O)c1c(C)c(C(=O)NCCN2CCOCC2)c(C)n1C
  i	0.26	-4.3%
Cc1cc(C)n(C(CC(=O)N2CCc3ccccc3C2)C(=O)O)n1 (stereo unspecified)
  i	1.7	0.7%
CN(Cc1ccccc1)C(=O)C1CCCN(Cc2ccc(Cl)cc2)C1 (stereo unspecified)
  i	x	4.6%
CCCCS(=O)(=O)NC1=NCN(Cc2ccco2)CN1
  i	0.34	0.1%
Cc1[nH]nc2c1C(=O)CC(C)(C)C2
  i	0.11	1.4%
CCCn1c2c(c(O)c(C(=O)Nc3nccs3)c1=O)CCCC2
  i	1	2.9%
O=C(NNC1=C(C(=O)C(F)(F)F)CCC1)c1cccc(Cl)c1
  i	x	-2.2%
COc1ccc2c(=O)c(-c3cnn(-c4ccccc4)c3)c(C)oc2c1
  i	x	-3.4%
Cn1ccnc1SCC(=O)NC1CCCCC1
  i	-0.72	-3.5%
Cc1onc(-c2c(Cl)cccc2Cl)c1C(=O)NCCc1ccc(S(N)(=O)=O)cc1
  i	x	-4.8%
O=C(c1ccccc1)c1ccc(OC(=O)N2CCOCC2)cc1
  i	-0.72	-2.9%
Cc1ccc(S(=O)(=O)N2CCCC2C(=O)Nn2cnnc2)cc1 (stereo unspecified)
  i	x	-0.2%
Cc1cccc(NC(=O)CSc2nnc(-c3ccco3)o2)c1C
  i	-0.62	3.0%
N#Cc1c(NC(=O)CN2C(=O)c3ccccc3C2=O)oc(-c2ccccc2)c1-c1ccccc1
  i	x	-1.8%
Cc1ccc(S(=O)(=O)Nc2ccc3c(c2)nc2n3CCN(Cc3ccccc3)C2)cc1
  i	0.23	-5.9%
COc1ccccc1NC(=O)c1ccc(S(=O)(=O)N(C)C)cc1
  i	-2.1	4.7%
O=C(c1ccco1)N1CCN(C(c2ccc(F)cc2)c2nnnn2Cc2cccs2)CC1 (stereo unspecified)
  i	1.1	-5.1%

Record cards, from the list above:
COc1ccc2c(=O)c(-c3cnn(-c4ccccc4)c3)c(C)oc2c1 is listed as MT1-MMP reporter: i; WNV NS2B-NS3 inh: x; Hsc70: -3.4%
COc1ccccc1NC(=O)c1ccc(S(=O)(=O)N(C)C)cc1 is listed as MT1-MMP reporter: i; WNV NS2B-NS3 inh: -2.1; Hsc70: 4.7%

Continuation:
Sequence of screens – MT1-MMP reporter	WNV NS2B-NS3 inh	Hsc70
CCC(Oc1ccccc1)C(=O)Nc1ccccn1 (stereo unspecified)
  i	-0.6	2.1%
CCc1ccc(C(=O)CSc2n[nH]c(-c3ccncc3)n2)cc1
  i	x	-5.9%
Cc1[nH]c2ccccc2c1SCC(=O)O
  i	x	-0.6%
CC(=O)Cn1c(N2CCC(Cc3ccccc3)CC2)nc2c1c(=O)[nH]c(=O)n2C
  i	-0.68	3.0%
COc1ccc(NC(=O)NCCCN2CCc3ccccc3C2)cc1
  i	-0.68	0.5%
CCOC(=O)C1CCN(C(=O)Nc2cccc(Cl)c2)CC1
  i	x	4.4%
O=C(NCCCn1ccnc1)c1cnn2c1NC(c1ccccc1)CC2C(F)(F)F (stereo unspecified)
  i	1.7	-2.1%
COc1ccc2c(c1OC)C(=O)OC2C1c2c(cc3c(c2OC)OCO3)CCN1C (stereo unspecified)
  i	-0.4&1.1	2.0%&2.7%
COc1ccc(C(=O)N2CCC(C(=O)c3ccc(F)cc3)CC2)cc1
  i	x	3.4%
CCN1CCN(C(=S)Nc2ccc(Cl)cc2)CC1
  i	x	-1.1%
COc1ccccc1C1SCCN1S(C)(=O)=O (stereo unspecified)
  i	1.1	9.3%
CC(C)=CC(=O)OCC(=O)NC(=O)NC(C)(C)C
  i	0.88	-6.8%
CCOC(=O)c1nc(Nc2ccc(C)cc2)c2ccccc2n1
  i	x	2.6%
